A1 apoptosis 2: compounds inhibiting A1, read as caspase activation. MEF A1-2A-BIM cells, caspase-Glo luminescence, 3 h; percent of clofoctol response, DMSO zero. caspase activation, % (test concentration not listed). 24,000 tested, under 10 active; in the data active means caspase activation above about 5.9%;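 further: wells of about 30 µL received 50 nL stock; the first replicate is given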
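Material: mouse embryonic fibroblasts co-expressing A1 and BIM (A1-2A-BIM), primed for A1 dependence / Quantity: 2500 cells/well / Buffer or medium: RPMI-1640 growth medium with 10% FBS / Doses: 50 nL compound per well, pinned / Schedule: 3 h compound exposure at 37 °C / Signal: Caspase-Glo luminescence (DEVD substrate) / Measure: Caspase-3/7 activation, seen as rise in luminescence signal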
Active calls of the source: *. An excerpt (hit frequency here may not be typical).

mol | A1 apoptosis 2
C[C@@H]1CCCCO[C@H](CN(C)S(C)(=O)=O)[C@@H](C)CN([C@H](C)CO)C(=O)c2cc(NC(=O)c3ccncc3)ccc2O1 | -0.5
C[C@@H]1CCCCO[C@@H](CN(C)C(=O)C2CCCCC2)[C@H](C)CN([C@@H](C)CO)C(=O)c2cc(NC(=O)CCCCCC(=O)Nc3ccccc3N)ccc2O1 | -0.2
CC(C)NC(=O)Nc1ccc2c(c1)C(=O)N([C@H](C)CO)C[C@@H](C)[C@H](CN(C)C(=O)C1CCCCC1)OCCCC[C@@H](C)O2 | -0.5
COc1ccc(NC(=O)Nc2ccc3c(c2)C(=O)N([C@H](C)CO)C[C@@H](C)[C@H](CN(C)C(=O)Cc2ccccc2)OCCCC[C@H](C)O3)cc1 | 1.5
Cc1noc(C)c1S(=O)(=O)Nc1ccc2c(c1)CC(=O)N([C@@H](C)CO)C[C@H](C)[C@@H](CN(C)Cc1ccc(Oc3ccccc3)cc1)O2 | -0.4
C[C@@H]1CN([C@H](C)CO)C(=O)Cc2cc(NC(=O)Nc3ccc(F)cc3)ccc2O[C@@H]1CN(C)Cc1ccc(C(=O)O)cc1 | -0.8
C[C@@H]1CN([C@H](C)CO)C(=O)c2cc(NC(=O)C3CC3)ccc2O[C@@H]1CN(C)S(C)(=O)=O | 1.6
C[C@H]1CCCCO[C@@H](CN(C)C(=O)CCC(F)(F)F)[C@@H](C)CN([C@@H](C)CO)C(=O)c2cc(NC(=O)C3CCCCC3)ccc2O1 | 0.9
C[C@@H]1CN([C@H](C)CO)C(=O)c2cccc(NS(=O)(=O)c3ccc(F)cc3)c2O[C@H]1CN(C)Cc1ccc(C(F)(F)F)cc1 | -1.7
C[C@@H]1CCCCO[C@@H](CN(C)C(=O)CCCN(C)C)[C@@H](C)CN([C@@H](C)CO)C(=O)c2cc(NC(=O)CCCN(C)C)ccc2O1 | -0.9
COc1ccc(NC(=O)Nc2cccc3c2O[C@H](CN(C)Cc2ccccc2)[C@H](C)CN([C@H](C)CO)C3=O)cc1 | -0.4
C[C@H]1CCCCO[C@H](CN(C)C(=O)Cc2ccccc2)[C@@H](C)CN([C@@H](C)CO)C(=O)c2cc(NC(=O)NC3CCCCC3)ccc2O1 | -1.8
Cc1ccc(S(=O)(=O)Nc2ccc3c(c2)C(=O)N([C@H](C)CO)C[C@H](C)[C@@H](CN(C)C(=O)Cc2ccccc2)OCCCC[C@@H](C)O3)cc1 | 0.2
C[C@H](CO)N1C[C@H](C)[C@@H](CN(C)Cc2ccc3c(c2)OCO3)Oc2c(NC(=O)Nc3ccccc3)cccc2C1=O | 0.3
Cc1noc(C)c1S(=O)(=O)N(C)C[C@@H]1OCCCC[C@@H](C)Oc2ccc(NS(=O)(=O)c3cccs3)cc2C(=O)N([C@H](C)CO)C[C@H]1C | -1.3
C[C@@H]1CCCCO[C@@H](CN(C)Cc2ccncc2)[C@@H](C)CN([C@H](C)CO)C(=O)c2cc(NC(=O)c3ccncc3)ccc2O1 | -0.3
C[C@@H]1CCCCO[C@@H](CN(C)Cc2ccc(Cl)c(Cl)c2)[C@@H](C)CN([C@@H](C)CO)C(=O)c2cc(NS(=O)(=O)c3ccc(F)cc3)ccc2O1 | 0.1
C[C@H]1CN([C@@H](C)CO)C(=O)c2cccc(NC(=O)c3ccncc3)c2O[C@H]1CN(C)Cc1ccc(Cl)c(Cl)c1 | 0.5
C[C@@H]1CN([C@H](C)CO)C(=O)c2cc(NC(=O)NC3CCCCC3)ccc2O[C@@H](C)CCCCO[C@@H]1CN(C)C(=O)c1ccccc1 | -0.1
C[C@@H]1CN([C@H](C)CO)C(=O)c2cc(NC(=O)Nc3ccccc3)ccc2O[C@@H]1CN(C)C(=O)Nc1ccc(C(F)(F)F)cc1 | 0.0
C[C@@H]1CN([C@@H](C)CO)C(=O)c2cc(N(C)C)ccc2O[C@@H](C)CCCCO[C@@H]1CN(C)C(=O)C1CCCCC1 | 1.4
C[C@@H]1CN([C@H](C)CO)C(=O)c2cccc(NS(=O)(=O)c3ccc(F)cc3)c2O[C@@H]1CN(C)Cc1ccc2c(c1)OCO2 | -0.1
C[C@H]1CN([C@@H](C)CO)C(=O)CCCn2cc(nn2)CO[C@H]1CN(C)Cc1ccc(C(=O)O)cc1 | 0.6
Cc1ccc(S(=O)(=O)N(C)C[C@@H]2Oc3ccc(NC(=O)NC(C)C)cc3C(=O)N([C@@H](C)CO)C[C@H]2C)cc1 | 0.8
CC(C)NC(=O)Nc1ccc2c(c1)C(=O)N([C@H](C)CO)C[C@H](C)[C@@H](CN(C)Cc1ccc3c(c1)OCO3)OCCCC[C@@H](C)O2 | 0.1
COc1ccc(NC(=O)N(C)C[C@H]2OCc3cnnn3CCCC(=O)N([C@H](C)CO)C[C@H]2C)c(OC)c1 | 0.9
C[C@H]1CN([C@@H](C)CO)C(=O)c2cccc(NC(=O)c3cnccn3)c2O[C@@H]1CN(C)C(=O)Nc1ccc(F)cc1 | -0.8
C[C@H](CO)N1C[C@H](C)[C@@H](CN(C)C(=O)Nc2ccc(F)cc2)OCCCC[C@H](C)Oc2ccc(NC(=O)Nc3ccccc3)cc2C1=O | 1.6
C[C@@H]1CCCCO[C@H](CN(C)Cc2ccncc2)[C@@H](C)CN([C@@H](C)CO)C(=O)c2cc(NS(=O)(=O)c3ccccc3)ccc2O1 | -0.7
C[C@H]1CN([C@@H](C)CO)C(=O)c2cc(NC(=O)CCN3CCOCC3)ccc2O[C@H]1CN(C)Cc1ccc2c(c1)OCO2 | -0.2
C[C@H](CO)N1C[C@H](C)[C@@H](CN(C)C(=O)Nc2cccc3ccccc23)Oc2ccc(NC(=O)c3ccncc3)cc2CC1=O | -0.8
NC(=O)COc1ccc(/C=N/NC(=O)c2ccccc2O)cc1 | -0.4
COc1ccc(S(=O)(=O)N(C)C[C@H]2Oc3ccc(NC(=O)CCCCCC(=O)Nc4ccccc4N)cc3C(=O)N([C@@H](C)CO)C[C@@H]2C)cc1 | -1.0
COc1ccc(NC(=O)Nc2ccc3c(c2)C(=O)N([C@@H](C)CO)C[C@@H](C)[C@@H](CN(C)S(=O)(=O)c2cn(C)cn2)O3)cc1 | 0.6
COCCCNC(=O)[C@@]1(Cc2ccccc2CN=[N+]=[N-])COC(c2ccc(OCCCO)cc2)=N1 | -0.7
C[C@H]1CCCCO[C@@H](CN(C)S(=O)(=O)c2cccs2)[C@@H](C)CN([C@@H](C)CO)C(=O)c2cc(NC(=O)Nc3ccc(C(F)(F)F)cc3)ccc2O1 | -1.5
C[C@@H]1CN([C@@H](C)CO)C(=O)c2cc(NC(=O)CCC(F)(F)F)ccc2O[C@H]1CN(C)S(=O)(=O)c1ccccc1 | -0.2
Cc1noc(C)c1NC(=O)Nc1ccc2c(c1)C(=O)N([C@H](C)CO)C[C@@H](C)[C@@H](CN(C)C)O2 | 0.1
C[C@@H]1CCCCO[C@H](CN(C)S(=O)(=O)c2ccc(F)cc2)[C@@H](C)CN([C@@H](C)CO)C(=O)c2cc(NS(C)(=O)=O)ccc2O1 | -0.5
Cc1noc(C)c1NC(=O)Nc1ccc2c(c1)C(=O)N([C@@H](C)CO)C[C@@H](C)[C@H](CN(C)Cc1ccc(C(=O)Nc3ccccc3N)cc1)O2 | 1.4
COc1ccc(NC(=O)Nc2ccc3c(c2)C(=O)N([C@H](C)CO)C[C@H](C)[C@H](CN(C)S(=O)(=O)c2ccc(C)cc2)O3)cc1 | 0.1
COc1ccc(NC(=O)Nc2ccc3c(c2)C(=O)N([C@H](C)CO)C[C@H](C)[C@@H](CN(C)Cc2ccc(C(F)(F)F)cc2)OCCCC[C@@H](C)O3)cc1 | 0.5
C[C@@H]1CN([C@@H](C)CO)C(=O)Cc2cc(NS(C)(=O)=O)ccc2O[C@@H]1CN(C)C(=O)Nc1ccc(C(F)(F)F)cc1 | -0.8
C[C@@H]1CN([C@H](C)CO)C(=O)c2cc(N(C)C)ccc2O[C@H]1CN(C)C | -1.4
C[C@@H]1CCCCO[C@@H](CN(C)C)[C@@H](C)CN([C@H](C)CO)C(=O)c2cc(NS(=O)(=O)c3cccs3)ccc2O1 | -1.0
COc1ccc(S(=O)(=O)N(C)C[C@H]2Oc3ccc(NC(=O)CCN4CCOCC4)cc3C(=O)N([C@H](C)CO)C[C@@H]2C)cc1 | 0.7
C[C@@H]1CN([C@@H](C)CO)C(=O)c2cccc(NS(=O)(=O)c3cccs3)c2O[C@@H]1CN(C)Cc1ccc2c(c1)OCO2 | 0.5
C[C@H](CO)N1C[C@H](C)[C@H](CN(C)C(=O)NC2CCCCC2)Oc2c(NC(=O)Nc3ccc(C(F)(F)F)cc3)cccc2C1=O | -0.2
Cc1noc(C)c1S(=O)(=O)Nc1ccc2c(c1)CC(=O)N([C@H](C)CO)C[C@@H](C)[C@@H](CN(C)S(=O)(=O)c1cccs1)O2 | 0.6
C[C@@H]1CN([C@@H](C)CO)C(=O)c2cc(NC(=O)CCN3CCOCC3)ccc2O[C@H]1CN(C)S(=O)(=O)c1ccccc1 | -0.1
C[C@@H]1CN([C@H](C)CO)C(=O)Cc2cc(NC(=O)Nc3ccc(C(F)(F)F)cc3)ccc2O[C@@H]1CN(C)C(=O)Nc1ccc(F)cc1 | -0.4
C[C@@H]1CN([C@H](C)CO)C(=O)c2cc(NC(=O)C3CCCCC3)ccc2O[C@@H](C)CCCCO[C@H]1CN(C)C(=O)CCC(F)(F)F | -0.9
C[C@H](CO)N1C[C@H](C)[C@@H](CN(C)Cc2ccc(C(F)(F)F)cc2)Oc2ccc(NC(=O)NC3CCCCC3)cc2CC1=O | -1.0
C[C@@H]1CN([C@H](C)CO)C(=O)Cc2cc(NS(=O)(=O)c3ccccc3)ccc2O[C@H]1CN(C)Cc1ccc(-c2ccccc2)cc1 | -1.9
C[C@@H]1CN([C@H](C)CO)C(=O)Cc2cc(NC(=O)Cn3cnnn3)ccc2O[C@@H]1CN(C)Cc1ccc(Cl)c(Cl)c1 | 0.1
C[C@H]1CN([C@@H](C)CO)C(=O)Cc2cc(NC(=O)CCCN(C)C)ccc2O[C@@H]1CN(C)Cc1ccc(Oc2ccccc2)cc1 | 0.5
C=CCOc1ccccc1/C=N/NC(=O)CCCCCCC(=O)OC | 1.2
C[C@H]1CN([C@@H](C)CO)C(=O)c2cccc(NC(=O)Nc3ccc(C(F)(F)F)cc3)c2O[C@@H]1CN(C)S(=O)(=O)c1ccc(Cl)cc1 | -1.3
C[C@@H]1CN([C@@H](C)CO)C(=O)c2cccc(N(C)C)c2O[C@H]1CN(C)Cc1ccccc1 | -0.7
C[C@@H]1CN([C@H](C)CO)C(=O)CCCn2nncc2CO[C@H]1CN(C)Cc1ccc(C(=O)O)cc1 | 0.0

Random excerpt: 6 compounds from above.
mol | A1 apoptosis 2
C[C@@H]1CN([C@H](C)CO)C(=O)Cc2cc(NS(=O)(=O)c3ccccc3)ccc2O[C@H]1CN(C)Cc1ccc(-c2ccccc2)cc1 | -1.9
Cc1noc(C)c1S(=O)(=O)Nc1ccc2c(c1)CC(=O)N([C@H](C)CO)C[C@@H](C)[C@@H](CN(C)S(=O)(=O)c1cccs1)O2 | 0.6
C[C@H](CO)N1C[C@H](C)[C@@H](CN(C)C(=O)Nc2cccc3ccccc23)Oc2ccc(NC(=O)c3ccncc3)cc2CC1=O | -0.8
C[C@@H]1CCCCO[C@H](CN(C)S(=O)(=O)c2ccc(F)cc2)[C@@H](C)CN([C@@H](C)CO)C(=O)c2cc(NS(C)(=O)=O)ccc2O1 | -0.5
COc1ccc(NC(=O)Nc2ccc3c(c2)C(=O)N([C@H](C)CO)C[C@H](C)[C@H](CN(C)S(=O)(=O)c2ccc(C)cc2)O3)cc1 | 0.1
C[C@@H]1CN([C@@H](C)CO)C(=O)c2cccc(NS(=O)(=O)c3cccs3)c2O[C@@H]1CN(C)Cc1ccc2c(c1)OCO2 | 0.5

(listing goes on)
mol | A1 apoptosis 2
O=C(CCCCCCC(=O)N/N=C/c1nccs1)NO | -0.1
O=C1OC[C@@H](c2ccccc2)n2cc(/C=C/c3ccccc3)cc21 | -0.6
COc1cc2c(cc1OC)CN(C(=O)[C@H]1[C@@H]3C(=O)O[C@@H](c4ccccc4)[C@@H](c4ccccc4)N3[C@@H](c3ccc(O)cc3)[C@]13C(=O)Nc1ccc(C#CC4=CCCCC4)cc13)CC2 | -0.7
C[C@@H]1CN([C@H](C)CO)C(=O)c2cccc(NC(=O)C3CCOCC3)c2O[C@@H]1CN(C)Cc1ccc(Oc2ccccc2)cc1 | -0.9
C[C@@H]1CN([C@@H](C)CO)C(=O)CCCn2cc(nn2)CO[C@@H]1CN(C)C(=O)c1ccc(N2CCN(C)CC2)cc1 | 0.9
Cc1cc(C(=O)Nc2cccc3c2O[C@@H](CN(C)Cc2ccc(C(=O)O)cc2)[C@@H](C)CN([C@@H](C)CO)C3=O)n(C)n1 | 2.5
C[C@H]1CN([C@@H](C)CO)C(=O)Cc2cc(NC(=O)NC3CCCCC3)ccc2O[C@@H]1CN(C)C(=O)NC1CCCCC1 | -0.6
Cc1noc(C)c1S(=O)(=O)N(C)C[C@@H]1OCCCC[C@H](C)Oc2ccc(NS(=O)(=O)c3cn(C)cn3)cc2C(=O)N([C@H](C)CO)C[C@@H]1C | 0.3
O=C(NCc1nc2ccccc2[nH]1)C1=C[C@H](c2coc3ccccc3c2=O)C[C@H](OCc2ccc(CO)cc2)O1 | -0.1
Cc1noc(C)c1NC(=O)Nc1ccc2c(c1)CC(=O)N([C@@H](C)CO)C[C@@H](C)[C@H](CN(C)Cc1ccc(C(F)(F)F)cc1)O2 | 0.5
